Assay outcomes (PubChem BioAssay)
FGF22 binding – binders of recombinant human FGF22 by thermal shift | 1.5% of 340,000 active | calls only at 9.99 µM | SYPRO orange fluorescence; percent of sucrose octasulfate shift, DMSO zero | AID 651658;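 active means melting point raised past a set limit in the mean and every replicate; three in four hits are not shown here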
Target sequence (Q9HCT0 whole entry, looked up): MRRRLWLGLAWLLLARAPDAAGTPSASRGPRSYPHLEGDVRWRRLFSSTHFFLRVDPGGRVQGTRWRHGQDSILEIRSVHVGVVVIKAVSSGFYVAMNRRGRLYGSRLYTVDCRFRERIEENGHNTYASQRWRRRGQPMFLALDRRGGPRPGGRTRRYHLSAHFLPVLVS
Calls only; i = inactive; + = active, no number. Some of the compounds tested (hit frequency here may not be typical).

FGF22 binding	structure
i	C[C@H](CO)N1C[C@H](C)[C@@H](CN(C)CC2CCOCC2)Oc2cc(C#CC3CC3)ccc2S1(=O)=O
i	COc1ccc(NC(=O)N(C)C[C@@H]2OCCCC[C@H](C)Oc3ccc(NS(C)(=O)=O)cc3C(=O)N([C@H](C)CO)C[C@@H]2C)cc1
i	COCC(=O)N1C[C@@H]2[C@H](c3ccccc31)[C@H](CO)N2Cc1ccccc1Cl
i	COc1ccccc1C#Cc1ccc([C@@H]2[C@@H](C#N)N(C(=O)C3CCC3)[C@H]2CO)cc1
i	C[C@@H]1CN([C@@H](C)CO)S(=O)(=O)c2ccc(-c3cccc(C#N)c3)cc2O[C@@H]1CN(C)Cc1ccccn1
i	COCC(=O)Nc1ccc2c(c1)C(=O)N(C)[C@H]1CC[C@H](CC(=O)NCc3ccccc3Cl)O[C@H]1CO2
i	C[C@@H]1CN([C@@H](C)CO)C(=O)c2cc(C#C[C@@H](C)O)cnc2O[C@H]1CN(C)C(=O)Nc1ccc(C(F)(F)F)cc1
i	C[C@H]1CCCCO[C@@H](CN(C)Cc2ccc(C(=O)O)cc2)[C@@H](C)CN([C@@H](C)CO)C(=O)c2cc(NC(=O)Nc3ccc4c(c3)OCO4)ccc2O1
i	CO[C@@H]1CN(C)C(=O)c2cc(NC(=O)Nc3ccccc3)ccc2OC[C@@H](C)N(C(=O)Nc2c(C)noc2C)C[C@H]1C
i	C[C@H](O)C#Cc1ccc2c(c1)O[C@@H](CN(C)Cc1cccnc1)[C@H](C)CN([C@@H](C)CO)S2(=O)=O
i	O=C(C[C@@H]1CC[C@@H]2[C@H](COC[C@H](O)CN2S(=O)(=O)c2ccccc2)O1)N1CCOCC1
i	CC(C)NC(=O)N(C)C[C@@H]1Oc2c(NC(=O)Nc3cccc4ccccc34)cccc2C(=O)N([C@@H](C)CO)C[C@@H]1C
+	OC[C@H]1[C@@H](c2ccc(-c3cccnc3)cc2)[C@@H]2CN(Cc3ccccn3)CCCCN12
i	CCNC(=O)C[C@@H]1CC[C@@H]2[C@H](COC[C@@H](O)CN2C(=O)Nc2ccc3c(c2)OCO3)O1
i	CCCN(C)C[C@H]1Oc2cc(-c3cccnc3)ccc2S(=O)(=O)N([C@@H](C)CO)C[C@H]1C
i	C[C@H](NC(=O)C[C@H]1CC[C@H](NC(=O)C2CCOCC2)[C@H](CO)O1)c1ccccc1
i	CC(=O)N(C[C@H]1N[C@H](CO)[C@@H]1c1ccc(-c2cccnc2)cc1)C1CCCC1
i	N#C[C@@H]1[C@H](c2ccc(C3=CCCC3)cc2)[C@H](CO)N1C(=O)C1CC1
i	COc1ccc2c3c([nH]c2c1)[C@H](CO)N(C(=O)C1CC1)CC31CN(Cc2nccs2)C1
i	O=C(C[C@@H]1CC[C@H]2[C@@H](COC[C@H](O)CN2C(=O)c2ccccn2)O1)NC1CCC1
i	COc1ccccc1-c1ccc2c(c1)[C@@H]1[C@@H](CCN1C(=O)C1CC1)[C@@H](CO)N2
i	O=C(C[C@H]1CC[C@H]2[C@@H](COC[C@H](O)CN2Cc2cccc(Cl)c2)O1)N1CCOCC1
i	O=C(C[C@H]1CC[C@H]2[C@@H](COC[C@@H](O)CN2Cc2nccs2)O1)NCc1ccc(Oc2ccccc2)cc1
i	C[C@@H]1CN([C@@H](C)CO)C(=O)Cc2cc(NS(=O)(=O)c3cccs3)ccc2O[C@H]1CN(C)Cc1ccc2c(c1)OCO2
i	C[C@H](CO)N1C[C@H](C)[C@H](CN(C)C(=O)Nc2cccc3ccccc23)Oc2c(NC(=O)Nc3ccc(C(F)(F)F)cc3)cccc2C1=O
i	COc1ccccc1S(=O)(=O)N[C@@H]1CC[C@@H](CCNC(=O)C2CCCCC2)O[C@@H]1CO
i	C[C@@H]1CCCCO[C@H](CN(C)Cc2ccc(C(F)(F)F)cc2)[C@H](C)CN([C@@H](C)CO)C(=O)c2cc(NC(=O)C3CCCCC3)ccc2O1
i	C[C@H]1CN([C@@H](C)CO)C(=O)Cc2cc(NC(=O)c3ccncc3)ccc2O[C@H]1CN(C)Cc1ccc(-c2ccccc2)cc1
i	COc1ccc(-c2ccc3n(c2=O)C[C@H]2[C@H](CO)[C@@H](C(=O)NCC4CC4)[C@@H]3N2S(C)(=O)=O)cc1
i	C[C@@H]1CCCCO[C@@H](CN(C)Cc2ccc3c(c2)OCO3)[C@@H](C)CN([C@@H](C)CO)C(=O)c2cc(NS(C)(=O)=O)ccc2O1
i	CO[C@H]1CN(C)C(=O)c2ccc(NC(=O)C3CC3)cc2OC[C@@H](C)N(CC2CC2)C[C@@H]1C
i	CN(C)C(=O)c1cccc(-c2ccccc2[C@H]2[C@@H](C#N)N(C(=O)C3CC3)[C@@H]2CO)c1
i	O=C(C[C@H]1CC[C@@H](NC(=O)Nc2ccccc2F)[C@@H](CO)O1)NCc1ccc(Cl)cc1
i	C[C@@H]1CCCCO[C@H](CN(C)Cc2ccc3c(c2)OCO3)[C@@H](C)CN([C@H](C)CO)C(=O)c2cc(NC(=O)Nc3ccc4c(c3)OCO4)ccc2O1
i	C[C@H]1CN([C@@H](C)CO)C(=O)c2cc(NC(=O)CCC(F)(F)F)ccc2O[C@H]1CN(C)C(=O)Nc1ccc2c(c1)OCO2
i	COc1ccc(NC(=O)N(C)C[C@H]2OCCCC[C@H](C)Oc3ccc(NC(=O)c4ccccc4)cc3C(=O)N([C@H](C)CO)C[C@@H]2C)cc1
i	CNC[C@H]1Oc2ncc(-c3ccc(C)cc3)cc2C(=O)N([C@@H](C)CO)C[C@H]1C
i	C[C@H]1CN([C@@H](C)CO)S(=O)(=O)c2ccc(-c3cccc(C#N)c3)cc2O[C@H]1CN(C)C(=O)C1CC1
i	CNC[C@H]1Oc2ccc(NC(=O)NC3CCCCC3)cc2C(=O)N([C@H](C)CO)C[C@@H]1C
i	CS(=O)(=O)Nc1ccc2c(c1)[C@H]1C[C@@H](CC(=O)NCc3ccc(-c4ccccc4)cc3)O[C@H](CO)[C@H]1O2
i	COCC(=O)Nc1ccc2c(c1)C(=O)N(C)C[C@@H](OC)[C@@H](C)CN(Cc1cncnc1)[C@@H](C)CO2
i	COc1ccc(NC(=O)N(C)C[C@@H]2Oc3ccc(NC(=O)Nc4cccc5ccccc45)cc3C(=O)N([C@@H](C)CO)C[C@@H]2C)cc1
i	C[C@H]1CN([C@@H](C)CO)C(=O)c2cc(NC(=O)c3ccncc3)ccc2O[C@@H]1CN(C)S(=O)(=O)c1ccccc1
i	C[C@@H]1CN([C@H](C)CO)C(=O)c2cccc(NC(=O)C3CCOCC3)c2O[C@H]1CN(C)S(=O)(=O)c1cn(C)cn1
i	COc1ccc2c3c([nH]c2c1)[C@H](CO)N(C(=O)CN(C)C)CC31CN(C(=O)c2ccncc2)C1
i	O=C(O)C[C@H]1C[C@H]2c3cc(NC(=O)C4CCC4)ccc3O[C@H]2[C@@H](CO)O1
i	C[C@@H]1CCCCO[C@@H](CN(C)C(=O)Nc2ccc3c(c2)OCO3)[C@@H](C)CN([C@@H](C)CO)C(=O)c2cc(NC(=O)Nc3ccc(F)cc3)ccc2O1
i	CO[C@H]1CN(C)C(=O)c2ccc(NC(=O)C3CC3)cc2OC[C@H](C)N(Cc2ccc(F)cc2)C[C@@H]1C
i	C[C@@H]1CCCCO[C@@H](CN(C)S(=O)(=O)c2cccs2)[C@@H](C)CN([C@H](C)CO)C(=O)c2cc(NC(=O)NC3CCCCC3)ccc2O1
i	O=C(Nc1ccccc1)N[C@@H]1CC[C@H](CCNS(=O)(=O)c2cccc(F)c2)O[C@@H]1CO
i	COc1ccc(S(=O)(=O)Nc2ccc3c(c2)C(=O)N([C@@H](C)CO)C[C@@H](C)[C@@H](CN(C)C)O3)cc1
i	COc1ccc(NC(=O)Nc2ccc3c(c2)C(=O)N([C@H](C)CO)C[C@H](C)[C@@H](CN(C)Cc2ccc(Cl)c(Cl)c2)OCCCC[C@H](C)O3)cc1
i	O=C(NCCc1ccccc1)[C@@H]1[C@@H](CO)[C@@H]2Cn3c(cccc3=O)[C@H]1N2C(=O)C1CCC1
i	Cc1ccc(S(=O)(=O)Nc2ccc3c(c2)C(=O)N([C@H](C)CO)C[C@H](C)[C@@H](CN(C)S(=O)(=O)c2cn(C)cn2)O3)cc1
i	C[C@@H]1CN([C@@H](C)CO)C(=O)Cc2cc(NC(=O)Nc3ccc(C(F)(F)F)cc3)ccc2O[C@H]1CN(C)CC1CCCCC1
i	C[C@H]1CCCCO[C@H](CN(C)C(=O)Nc2ccc(C(F)(F)F)cc2)[C@@H](C)CN([C@@H](C)CO)C(=O)c2cc(NS(=O)(=O)c3ccc(Cl)cc3)ccc2O1
i	C[C@@H]1CN([C@@H](C)CO)C(=O)Cc2cc(NS(=O)(=O)c3ccccc3)ccc2O[C@H]1CN(C)C(=O)Nc1cccc2ccccc12
i	CCc1c(Cc2cccc(F)c2)ncn1CCc1ccccc1OC
i	C[C@@H]1CN([C@@H](C)CO)C(=O)c2cc(NC(=O)NC3CCCCC3)ccc2O[C@H]1CN(C)S(=O)(=O)c1ccc(Cl)cc1
i	COCC(=O)N(C)C[C@@H]1Oc2cc(-c3ccccc3)ccc2S(=O)(=O)N([C@H](C)CO)C[C@@H]1C

(listing goes on)
FGF22 binding	structure
i	C[C@@H]1CN([C@@H](C)CO)C(=O)Cc2cc(NS(=O)(=O)c3ccccc3)ccc2O[C@H]1CN(C)Cc1ccc(Oc2ccccc2)cc1
i	COCC(=O)Nc1ccc2c(c1)[C@H]1C[C@H](CC(=O)OC)O[C@H](CO)[C@H]1O2
i	C[C@@H]1CN([C@H](C)CO)C(=O)c2cc(NC(=O)Nc3ccc(F)cc3)ccc2O[C@H]1CN(C)S(=O)(=O)c1cccs1
i	C[C@@H]1CN([C@H](C)CO)S(=O)(=O)c2ccc(-c3cccnc3)cc2O[C@H]1CN(C)C(=O)NC1CCCCC1
i	COc1ccc(NC(=O)Nc2cccc3c2O[C@H](CN(C)S(=O)(=O)c2cn(C)cn2)[C@H](C)CN([C@@H](C)CO)C3=O)cc1
i	CN1CCCCN2[C@H](CO)[C@H](c3ccc(-c4ccccc4)cc3)[C@H]2C1
i	O=C(Cc1ccccc1)N[C@H]1C=C[C@@H](CC(=O)N2CCOCC2)O[C@H]1CO
i	CN1CCN(C(=O)C[C@@H]2CC[C@@H]3[C@@H](COc4ccc(NC(=O)c5ccc(F)c(F)c5)cc4C(=O)N3C)O2)CC1
i	Cc1noc(C)c1NC(=O)Nc1ccc2c(c1)CC(=O)N([C@@H](C)CO)C[C@@H](C)[C@@H](CN(C)S(C)(=O)=O)O2
i	C[C@@H]1CN([C@@H](C)CO)C(=O)Cc2cc(NC(=O)Cc3ccccc3)ccc2O[C@H]1CN(C)Cc1ccc(Oc2ccccc2)cc1
i	Cc1cc(C(=O)Nc2cccc3c2O[C@H](CN(C)S(=O)(=O)c2cn(C)cn2)[C@@H](C)CN([C@@H](C)CO)C3=O)n(C)n1
i	CC(C)(O)C#Cc1ccc([C@H]2[C@H]3CN(Cc4ccccc4F)CCCCN3[C@H]2CO)cc1
i	COc1ccccc1S(=O)(=O)N1CC[C@@H]2[C@H]1c1cc(-c3ccc(F)cc3)ccc1N[C@@H]2CO
i	O=C(Cc1ccccn1)N[C@H]1CC[C@H](CC(=O)N2CCCCC2)O[C@H]1CO
i	O=C(Nc1ccc(F)cc1)N1CC(=O)N2[C@H](C1)[C@H](c1ccc(-c3cccc(F)c3)cc1)[C@@H]2CO
i	CNC[C@H]1Oc2ccc(NC(=O)Nc3c(C)noc3C)cc2CC(=O)N([C@@H](C)CO)C[C@@H]1C
i	COC(=O)[C@H]1[C@H](CO)[C@H]2Cn3c(ccc(-c4ccccc4F)c3=O)[C@H]2N1C(=O)CC1CC1
i	COc1cccc(CN2CC3(CCN(C)CC3)c3c([nH]c4cc(OC)ccc34)[C@@H]2CO)c1
i	C[C@H](CO)N1C[C@H](C)[C@@H](CN(C)C(=O)NC2CCCCC2)Oc2ccc(NC(=O)Nc3cccc4ccccc34)cc2CC1=O
i	Cc1ccc(-c2ccc3c(c2)O[C@@H](CN(C)S(C)(=O)=O)[C@H](C)CN([C@H](C)CO)S3(=O)=O)cc1
i	COCC(=O)Nc1ccc2c(c1)C(=O)N(C)[C@@H]1CC[C@@H](CC(=O)NCc3ccccc3Cl)O[C@@H]1CO2
i	COCC(=O)N(C)C[C@@H]1Oc2ncc(/C=C/c3ccccc3)cc2C(=O)N([C@H](C)CO)C[C@H]1C
i	CC=Cc1ccc2n(c1=O)C[C@@H]1[C@@H](CO)[C@H](C(=O)NCCN3CCCC3)N(C(=O)NC(C)C)[C@H]21 (mixture of isomers)

Compounds listed so far that have a Cl atom:
FGF22 binding	structure
i	COCC(=O)N1C[C@@H]2[C@H](c3ccccc31)[C@H](CO)N2Cc1ccccc1Cl
i	COCC(=O)Nc1ccc2c(c1)C(=O)N(C)[C@H]1CC[C@H](CC(=O)NCc3ccccc3Cl)O[C@H]1CO2
i	O=C(C[C@H]1CC[C@H]2[C@@H](COC[C@H](O)CN2Cc2cccc(Cl)c2)O1)N1CCOCC1
i	O=C(C[C@H]1CC[C@@H](NC(=O)Nc2ccccc2F)[C@@H](CO)O1)NCc1ccc(Cl)cc1
i	COc1ccc(NC(=O)Nc2ccc3c(c2)C(=O)N([C@H](C)CO)C[C@H](C)[C@@H](CN(C)Cc2ccc(Cl)c(Cl)c2)OCCCC[C@H](C)O3)cc1
i	C[C@H]1CCCCO[C@H](CN(C)C(=O)Nc2ccc(C(F)(F)F)cc2)[C@@H](C)CN([C@@H](C)CO)C(=O)c2cc(NS(=O)(=O)c3ccc(Cl)cc3)ccc2O1
i	C[C@@H]1CN([C@@H](C)CO)C(=O)c2cc(NC(=O)NC3CCCCC3)ccc2O[C@H]1CN(C)S(=O)(=O)c1ccc(Cl)cc1
i	COCC(=O)Nc1ccc2c(c1)C(=O)N(C)[C@@H]1CC[C@@H](CC(=O)NCc3ccccc3Cl)O[C@@H]1CO2

Looked up one by one from the entries so far, 2 records:
FGF22 binding	structure
i	COc1ccc2c3c([nH]c2c1)[C@H](CO)N(C(=O)CN(C)C)CC31CN(C(=O)c2ccncc2)C1
i	C[C@@H]1CCCCO[C@H](CN(C)Cc2ccc(C(F)(F)F)cc2)[C@H](C)CN([C@@H](C)CO)C(=O)c2cc(NC(=O)C3CCCCC3)ccc2O1
